Vif A3G = inhibitors of Vif binding to APOBEC3G peptide, primary screen, biochemical, TR-FRET, GST-Vif 1-94, biotin-A3G peptide, dose response retest (AID 1117319). TR-FRET GST-Vif / biotin-A3G peptide binding; higher % means a stronger effect; test concentration not given here; strong numbers were not always called active. Virion infectivity factor (Human immunodeficiency virus type 1 group M subtype B (isolate …. 260,000 compounds, 0.57% hits. inhibition, %, or IC50 in µM where a hit was titrated;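 active = above the screen mean plus three standard deviations and confirmed in dose response; inconclusive = results disagree or hit not tested in dose response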;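 note: Vif residues 1-94 fused to GST binding biotinylated APOBEC3G peptide 110-148; 0% = full assay without inhibitor and 100% = GST in place of GST-Vif; retest series ran down from 100 µM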
E coli growth = E. coli growth inhibition, primary screen, OD600; Escherichia coli growth, 23 h; stronger effect = lower value; OD600 absorbance (test concentration not listed); 330,000 compounds, 0.21% hits;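 active = OD600 absorbance below the run mean of sample wells minus 3.6 SD, in any replicate, cut at about 0.56 in these data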;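 note: stock transfer was 300 nL into about 60 µL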
AF4-AF9 inh = inhibitors of AF4 peptide binding to AF9, primary screen, biochemical, AlphaScreen, biotin-AF4 peptide, FLAG-AF9, single point; Protein AF-9 (Homo sapiens), P42568; 350,000 compounds, 0.47% hits; inhibition, % at 10 µM;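 active = every replicate reaching a set inhibition limit, whatever the replicate mean, cut at about 25% in these data; inconclusive = mean inhibition reaches that limit but some replicates miss it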;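 note: 0% = plate neutral control median and 100% = total signal loss; the record names both 10 and 1 µM as test concentration; the first replicate is given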
FGF22 binding = binders of human FGF22 protein, primary screen, FGF22 synaptogenesis inhibitor project, biophysical, thermal shift, single point | 340,000 compounds, 1.5% hits | calls only at 9.99 µM | Fibroblast growth factor 22 (Homo sapiens), Q9HCT0 | recombinant FGF22 thermal shift, SYPRO orange fluorescence; percent of sucrose octasulfate shift, DMSO zero;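 active = melting point raised past a set limit in the mean and every replicate; inconclusive = no clear call; three in four hits are not shown here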
Target sequence (Q9HCT0 whole entry, looked up): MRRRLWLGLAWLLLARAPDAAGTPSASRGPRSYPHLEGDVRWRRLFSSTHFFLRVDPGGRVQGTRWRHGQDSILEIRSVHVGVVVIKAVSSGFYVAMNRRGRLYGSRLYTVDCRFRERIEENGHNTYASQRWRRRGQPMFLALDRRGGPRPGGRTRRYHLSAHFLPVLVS
HNF4A DNA FP = change in binding of human HNF4A to DNA, primary screen, biochemical, fluorescence polarization, FITC-DNA | Hepatocyte nuclear factor 4-alpha (Homo sapiens), P41235 | 1 h | activity change, % at 10 µM | 360,000 compounds, 0.3% hits; in the data active = activity change above about 30%, passing the limit was not always enough;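 note: controls were the assay level and a saturating level of protein; the project sought stronger binding though the title names inhibitors; some compounds called inactive have numbers as strong as hits; positive values seem to mean higher polarization but the record does not say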
Target sequence (P41235 whole entry, looked up): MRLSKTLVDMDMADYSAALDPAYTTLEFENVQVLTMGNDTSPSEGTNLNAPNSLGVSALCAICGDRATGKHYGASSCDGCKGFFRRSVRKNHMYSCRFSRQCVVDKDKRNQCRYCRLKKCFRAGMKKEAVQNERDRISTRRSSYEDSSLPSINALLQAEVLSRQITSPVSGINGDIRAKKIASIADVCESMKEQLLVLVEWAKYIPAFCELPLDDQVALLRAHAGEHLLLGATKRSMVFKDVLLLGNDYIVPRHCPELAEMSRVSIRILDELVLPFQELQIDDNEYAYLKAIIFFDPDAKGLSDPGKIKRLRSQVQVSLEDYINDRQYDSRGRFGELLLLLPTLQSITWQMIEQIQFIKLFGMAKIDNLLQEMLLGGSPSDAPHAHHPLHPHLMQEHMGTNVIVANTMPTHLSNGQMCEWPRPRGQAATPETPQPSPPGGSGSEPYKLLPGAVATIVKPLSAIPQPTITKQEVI
rRNA inh HTS = reduced GFP signal of wild-type E. coli, primary screen, bacterial rRNA inhibitor project, GFP/RFP fluorescence, OD600, single point; GFP signal change (wild-type ribosome), % (concentration not given with the values); AID 720706, 2013; 350,000 compounds, 1.6% hits; E. coli WT GFP vs humanized-ribosome RFP mutants, 24 h; stronger effect = lower value; DMSO median 0, no signal -100;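 active = significant combined selectivity score with lowered wild-type GFP, culture density cut under 30%, mutant RFP and density less affected; inactive = any of these conditions unmet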; note: one replicate is shown; some compounds called inactive have numbers as strong as hits
ALR inh = inhibitors of human ALR sulfhydryl oxidase, primary screen, biochemical, H2O2 detection, HRP-luminol luminescence, single point; FAD-linked sulfhydryl oxidase ALR (Homo sapiens), P55789; purified ALR, DTT oxidation; inhibition, % (no concentration beside the values); 290,000 compounds, 3.8% hits; AID 485317, 2010;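 active = mean and each replicate at 75% or more; inconclusive = only one of the two met; inactive = neither met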;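 note: stock transfer was 7.5 nL into about 7.5 µL; 0% = neutral wells and 100% = wells with inactivated enzyme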
Target sequence (P55789 whole entry, looked up): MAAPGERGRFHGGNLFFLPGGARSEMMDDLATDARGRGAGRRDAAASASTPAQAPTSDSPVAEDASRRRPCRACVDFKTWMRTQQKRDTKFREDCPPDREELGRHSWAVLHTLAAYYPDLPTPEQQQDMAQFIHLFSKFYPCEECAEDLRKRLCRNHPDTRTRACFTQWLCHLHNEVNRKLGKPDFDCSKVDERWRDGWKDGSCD
rRNA inh HTS OD600 = second read-out of rRNA inh HTS, no call of its own (marks repeat the call); OD600 change, %; measured here: OD600 growth;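 optical density of the mix in the first replicate; 0 = DMSO median and -100 = no signal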
rRNA inh HTS RFP = recorded beside rRNA inh HTS, whose call it bears; RFP signal change, %; measured here: RFP humanized mutant strains;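 first replicate; 0 = DMSO median and -100 = no signal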
An asterisk follows results filed as active; i = inactive; ? = inconclusive; nt = not tested or not shown. Only part of the results is shown (hit frequency here may not be typical).

SMILES	Vif A3G	E coli growth	AF4-AF9 inh	FGF22 binding	HNF4A DNA FP	rRNA inh HTS	rRNA inh HTS OD600	rRNA inh HTS RFP	ALR inh
CC(=O)C(=Cc1cc(C)n(-c2ccccc2)c1C)C(C)=O	9%	0.69	3.1	i	-0.9	8	4	3.9	3
CN(C)C(CNC(=S)Nc1ccccc1Cl)c1cccnc1 (centres undefined)	nt	0.75	-0.9	i	1.8	nt	nt	nt	-2
O=C(CCCN1CCOCC1)c1ccc2c(c1)OCCO2	-2%	0.7	nt	nt	0.9	nt	nt	nt	-9
C[C@H](CO)N1C[C@H](C)[C@@H](CN(C)C(=O)C2CC2)Oc2ncc(C#Cc3cccc(F)c3)cc2C1=O	nt	nt	2.2	i	nt	-2	-3	1.8	nt
COc1ccc(C(O)c2nccn2C)cc1 (centres undefined)	3%	0.68	nt	nt	-0.6	nt	nt	nt	-5
CCOc1ccc(CN2CCNC(=O)C2CC(=O)NCCc2ccccn2)cc1 (centres undefined)	6%	0.71	0.5	i	1.0	16	6	3.5	-2
C[C@@H]1CCCCO[C@H](CN(C)C(=O)Nc2ccc3c(c2)OCO3)[C@H](C)CN([C@@H](C)CO)C(=O)c2cc(NS(=O)(=O)c3cn(C)cn3)ccc2O1	nt	nt	-4.2	i	nt	0	3	-0.9	nt
CC(C)(C)n1nnnc1C(c1cc2ccccc2o1)N(Cc1ccccc1)Cc1ccccc1 (centres undefined)	nt	nt	0.2	i	8.2	16	15	-0.5	nt
CC(C)c1ccc(C(C(=O)NC2CCCCC2)N(C(=O)c2ccccn2)c2cccnc2)cc1 (centres undefined)	?	0.72	0.9	nt	0.7	3	5	-4.2	-15
CS(=O)(=O)N(Cc1ccc(C(=O)NCCSCc2ccco2)cc1)c1ccccc1	-1%	0.7	nt	nt	-3.6	nt	nt	nt	-2
CCCCNS(=O)(=O)c1cc(-c2nn(C)c(=O)c3ccccc23)ccc1C	8%	0.68	-10.0	i	-6.4	-8	-9	-10	-5
Cc1cc(C)c2c(N)c(C(=O)Nc3c(C)n(C)n(-c4ccccc4)c3=O)sc2n1	nt	0.66	-0.7	i	0.7	5	14	-0.1	25
O=S(=O)(c1ccc(SCCOc2ccc(Br)cc2)nc1)N1CCCC1	-6%	0.69	-7.1	i	-0.2	-4	-2	-4.1	nt
CCCc1nnc(NC(=O)Nc2ccccc2OC)s1	nt	0.62	nt	nt	1.9	nt	nt	nt	0
COCCNC(=O)C1(C)CCCN(C(=O)COc2ccccc2)C1 (centres undefined)	nt	nt	-4.1	i	2.6	13	11	2.0	nt
Cc1ccc(NC(=O)CN2C(=O)NC(C)(C3CC3)C2=O)c([N+](=O)[O-])c1 (centres undefined)	-1%	0.68	-10	i	2.2	-5	6	-1.4	-5
CCn1c(SCC(=O)Nc2ccc(S(=O)(=O)Nc3ccccn3)cc2)nnc1-c1ccncc1	0%	0.78	nt	nt	0.1	nt	nt	nt	3
O=C(NN=Cc1cc(Cl)ccc1[N+](=O)[O-])c1cccc2ccccc12	-4%	nt	-2.6	i	-4.5	-5	3	4.2	nt
COc1ccc(CNC(=O)c2ccc(N3CCC4(CC3)CC(c3ccc(Cl)cc3)=NO4)c(NC(=O)Cc3ccc(F)cc3)c2)cc1	nt	0.68	-9.8	i	5.1	2	1	-3.2	-2
OCCNc1ncnc2c1ncn2Cc1ccccc1	-4%	0.66	nt	nt	-0.1	nt	nt	nt	-5

Quoted from above (2 entries):
SMILES	Vif A3G	E coli growth	AF4-AF9 inh	FGF22 binding	HNF4A DNA FP	rRNA inh HTS	rRNA inh HTS OD600	rRNA inh HTS RFP	ALR inh
CC(=O)C(=Cc1cc(C)n(-c2ccccc2)c1C)C(C)=O	9%	0.69	3.1	i	-0.9	8	4	3.9	3
CN(C)C(CNC(=S)Nc1ccccc1Cl)c1cccnc1 (centres undefined)	nt	0.75	-0.9	i	1.8	nt	nt	nt	-2

Continued.
SMILES	Vif A3G	E coli growth	AF4-AF9 inh	FGF22 binding	HNF4A DNA FP	rRNA inh HTS	rRNA inh HTS OD600	rRNA inh HTS RFP	ALR inh
Cc1noc(C)c1NC(=O)N(C)C[C@@H]1Oc2ccc(NC(=O)Cn3cnnn3)cc2C(=O)N([C@H](C)CO)C[C@@H]1C	nt	nt	-3.3	i	nt	2	-4	-1.3	nt
COC(=O)c1nc2n(n1)C(c1cc(OC)ccc1OC)C(C(=O)OC1CCCCC1)=C(C)N2 (centres undefined)	-2%	0.7	nt	nt	4.0	nt	nt	nt	12
O=C(Cc1ccncc1)NCC[C@@H]1CC[C@H](NC(=O)C2CCCCC2)[C@@H](CO)O1	nt	nt	0.4	i	nt	1	4	-1.5	nt
COC(=O)c1c(NC(=O)c2cccs2)sc2c1CCCC2	-3%	0.71	nt	nt	-3.0	nt	nt	nt	-1
O/N=C1\CCC\C1=C/c1ccco1	7.6µM*	nt	nt	nt	-2.3	nt	nt	nt	-4
C[C@H]1CN([C@@H](C)CO)C(=O)Cc2cc(NC(=O)Cc3ccccc3)ccc2O[C@H]1CN(C)S(C)(=O)=O	nt	nt	-1.8	i	nt	-1	4	1.3	nt
O=C(Nc1ccc(C(=O)O)cc1)/C(=C\c1ccco1)NC(=O)c1ccco1	nt	0.7	-5.1	i	2.9	24	6	2.6	40
CCCCN(CC)C(=O)c1ccc2c(c1)OCO2	nt	0.69	nt	nt	2.5	nt	nt	nt	-2
Cc1onc(CO)c1C(=O)Nc1nccs1	-12%	0.7	-3.2	i	-3.4	9	9	0.3	0
CCc1n[nH]c(=S)n1/N=C/c1ccc(N(C)c2ccccc2)cc1	-2%	nt	0.3	i	0.1	-14	4	2.6	3
CC1(c2ccccn2)Nc2ccccc2-c2nc3ccccc3n21 (centres undefined)	1%	0.66	nt	nt	3.1	nt	nt	nt	22
O=C1c2ccccc2NC(c2ccc3c(c2)OCO3)N1O (centres undefined)	7%	0.71	nt	nt	-2.4	nt	nt	nt	nt
Cc1nc(Nc2ccc(Cl)cc2)c2oc3ccccc3c2n1	nt	0.67	0.8	i	2.7	3	22	1.4	3
O=C(COC(=O)CCC(=O)c1ccc(Cl)cc1)NCCc1ccccc1	-1%	0.65	4.6	nt	7.3	-4	-6	3.9	-3
O=C(NC1CCCC1)c1cccnc1N1CCCCCC1	-3%	0.71	6.9	i	-0.6	-1	-7	0.2	-4
O=C(CSc1nnc2ccc(-c3cccnc3)nn12)Nc1ccc(F)cc1	-5%	0.66	7.6	i	-0.4	9	15	1.8	-1
COc1ccc(S(=O)(=O)N(C)C[C@H]2Oc3c(NC(=O)Cc4ccccc4)cccc3C(=O)N([C@H](C)CO)C[C@@H]2C)cc1	nt	0.73	-2.0	i	-3.3	-15	-9	-2.2	0
O=C(CC(Nc1ccc(F)cc1)C(=O)O)c1ccccc1 (centres undefined)	3%	0.66	nt	nt	-1.8	nt	nt	nt	8
Cc1ccc(N(C(=O)CNC(=O)c2ccco2)C(C(=O)NC2CCCC2)c2cccnc2)cc1F (centres undefined)	-4%	0.66	1.7	i	-2.5	2	2	-1.0	nt
COc1ccc(C(O)P(=O)(OCCC(C)C)c2ccc(N(C)C)cc2)cc1 (centres undefined)	-4%	0.65	4.8	i	-0.3	-4	-3	2.3	-25
CCOC(=O)CSc1nnc(-c2ccc(Cl)cc2Cl)o1	-7%	0.71	nt	nt	-4.5	nt	nt	nt	nt
CCc1ccc(/C=C2\SC(=S)N(CCCC(=O)Nc3nccs3)C2=O)cc1	nt	0.77	nt	nt	2.6	nt	nt	nt	-8
COc1cc(N)c2ncccc2c1SC	0%	nt	3.6	i	-1.1	4	-38	14	nt
CCOc1ccc2ncc(S(=O)(=O)c3ccc(C)cc3)c(N3CCC4(CC3)OCCO4)c2c1	nt	0.75	11	i	-0.8	-3	-11	15	nt
Cc1ccccc1C(=O)NC(=S)Nc1ccc2[nH]c(=O)[nH]c2c1	3%	0.68	-0.7	i	3.5	14	6	-0.1	-36
S=c1[nH]cc(Cc2ccccc2)s1	-9%	0.63	nt	nt	-0.2	nt	nt	nt	63
COc1ccccc1N(CC(=O)NCCSc1ccccn1)S(=O)(=O)c1ccccc1	nt	0.7	1.4	i	2.4	-6	-19	-0.2	-12
COc1ccc(/C=C(/NC(=O)c2ccccc2)C(=O)NC(Cc2c[nH]c3ccccc23)C(=O)O)cc1 (centres undefined)	nt	0.69	0.2	i	0.2	10	9	-1.7	-9
O=C(NCc1ccco1)c1ccc(NS(=O)(=O)c2cccc([N+](=O)[O-])c2)cc1	-5%	0.66	-2.2	nt	-1.4	15	4	-0.1	-3
O=C(CSc1nncs1)N1CCN(S(=O)(=O)c2ccccc2)CC1	nt	0.7	1.2	nt	0.0	2	-12	-4.2	7
CCN(C(=O)CSc1nnc(COc2cccc(C)c2)o1)c1nc(C)cs1	nt	0.69	-4.6	i	2.2	7	9	-2.4	-8
O=C(CCSc1nc2ccccc2s1)N/N=C/c1c(O)ccc2ccccc12	-2%	nt	-9.4	i	8.3	2	2	-1.6	-10
CNC(=O)c1ccc(-c2nc(-c3ccccc3)cs2)cc1	nt	0.69	3.6	i	-1.9	-4	-5	2.5	-3
CCOC(=O)/C(=C\C=C1/Sc2ccccc2N1CC)C(C)=O	nt	nt	7.3	i	180	16	-3	30	66
CS(=O)(=O)N1[C@H](C#N)[C@@H](c2ccc(C#CC3CC3)cc2)[C@H]1CO	nt	nt	-0.4	i	nt	1	3	-1.0	nt
N#CC1c2ccccc2-c2ccccc2N1C(=O)c1ccccc1 (centres undefined)	10%	nt	3.0	i	-0.8	-14	-21	-3.7	nt
O=C(CN1C(=O)CCS(=O)(=O)c2ccccc21)Nc1ccccc1F	3%	0.65	-1.0	i	-1.3	5	5	2.1	-6
CC(Nc1cccc(F)c1)C(=O)Nc1ccc(S(N)(=O)=O)cc1 (centres undefined)	nt	0.67	-0.7	i	2.0	8	18	0.5	3
NC(N)=N/N=C/c1ccc(Cl)c([N+](=O)[O-])c1	8%	nt	9.6	i	-3.4	nt	nt	nt	-4
Cc1cc2n(n1)C(c1ccsc1)Nc1ccccc1-2 (centres undefined)	2%	0.67	nt	nt	8.9	nt	nt	nt	22
O=C(Cn1c(=O)c2cccn2c2cccnc21)N1CCN(c2ccccc2F)CC1	5%	0.68	-15	i	-0.6	3	11	-2.9	-2
Cc1[nH]n(-c2ccccc2)c(=O)c1CCOC(=O)c1cccc(C(F)(F)F)c1	-16%	0.7	nt	nt	-0.9	nt	nt	nt	nt
N#CC(C(=O)c1ccccc1Cl)=C1SCCCS1	0%	0.67	3.2	i	0.6	-9	-3	3.5	1
COc1ccc(-c2[nH]ncc2CN2C[C@@H]3CCC[C@H]2C3)c(F)c1	12%	0.68	0.9	i	-1.1	12	14	2.9	-10
CCN(C(=O)CSc1nnc(-c2ccc(C)cc2)n1N)c1c(N)n(Cc2ccccc2)c(=O)[nH]c1=O	-2%	0.65	2.1	i	0.8	12	7	-1.1	nt
CN(Cc1cnccn1)C(=O)CC1C(=O)NCCN1Cc1ccc(F)cc1Cl (centres undefined)	nt	0.68	1.1	i	-4.5	4	14	1.1	-5

Assay outcomes: PubChem, several laboratories
